Arbovirus inh: blocks arbovirus infection | inhibition, % at 10 µM | 0.37% of 200,000 active | arbovirus infection cell-based antiviral screen;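 active means inhibition from about 30%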;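 further: bluetongue infection of BSR cells; cell survival read as ATP light after 72 h; 0% = infected wells without compound and 100% = uninfected wells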
RecA intein inh: inhibitors of M. tuberculosis RecA intein splicing; 0.75% of 290,000 active; P9WHJ3; inhibition, %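 (about 9 µM by stock and volumes)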; cell-free RecA intein splicing, fluorescence; AID 2221; in the data active means inhibition above about 30%; inconclusive means no clear call, values can overlap the other calls;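 further: 0% = vehicle wells and 100% = reference inhibitor control wells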
Target sequence (P9WHJ3 whole entry, looked up): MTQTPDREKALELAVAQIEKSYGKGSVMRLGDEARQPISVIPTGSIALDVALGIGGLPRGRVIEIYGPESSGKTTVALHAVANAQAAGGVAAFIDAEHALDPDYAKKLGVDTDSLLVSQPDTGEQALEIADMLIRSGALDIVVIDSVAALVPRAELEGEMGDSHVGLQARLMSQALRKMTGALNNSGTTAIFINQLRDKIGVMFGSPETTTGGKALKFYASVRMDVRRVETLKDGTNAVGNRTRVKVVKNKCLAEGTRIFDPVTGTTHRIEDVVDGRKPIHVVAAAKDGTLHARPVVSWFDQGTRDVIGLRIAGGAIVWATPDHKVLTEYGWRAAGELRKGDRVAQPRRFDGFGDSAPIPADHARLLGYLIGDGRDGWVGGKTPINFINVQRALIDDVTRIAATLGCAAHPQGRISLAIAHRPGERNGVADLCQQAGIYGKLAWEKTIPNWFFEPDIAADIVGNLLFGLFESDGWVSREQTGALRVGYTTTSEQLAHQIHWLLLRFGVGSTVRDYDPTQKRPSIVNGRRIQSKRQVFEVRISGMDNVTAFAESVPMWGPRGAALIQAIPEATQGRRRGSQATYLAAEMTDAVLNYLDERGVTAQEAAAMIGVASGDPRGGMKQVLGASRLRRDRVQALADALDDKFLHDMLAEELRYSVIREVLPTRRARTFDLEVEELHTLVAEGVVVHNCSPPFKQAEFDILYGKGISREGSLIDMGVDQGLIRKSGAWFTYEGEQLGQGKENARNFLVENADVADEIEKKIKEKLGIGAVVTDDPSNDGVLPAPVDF
Mtb betalactam: beta-lactam sensitization of Mtb H37Rv; M. tuberculosis H37Rv growth with meropenem, percent inhibition; hits of this screen are not shown here; inhibition, % at 25 µM; 0.27% of 330,000 active;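 active means about 74% or more and at least 40 points above the plate without the antibiotic, then above 30% in a dose series; inconclusive means first-round hits that could not be retested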;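 further: growth measured after seven days incubation then overnight dye step; 0% = bacteria only wells and 100% = bacteria with antibiotic; twin plates without the antibiotic show which effects depend on it; some results filed as inactive read as strong as hits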
YopH PTP inh: inhibitors of Yersinia enterocolitica YopH tyrosine phosphatase | fluorescence Ex485/Em525 | inhibition, %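 (about 10 µM by stock and volumes)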 | 0.16% of 140,000 active;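 active means inhibition of 50% or more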;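 further: controls were vehicle for no effect and minimum signal wells for full effect; inactives centre near -20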
Mtb growth: M. tuberculosis H37Rv growth inhibitors, H37Rv strain (AID 1626) | M. tuberculosis H37Rv growth inhibition; higher % means a stronger effect | inhibition, % at 10 µM, or IC50 in µM where a hit was titrated | 0.95% of 220,000 active;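 active means confirmed in a dose series; inconclusive means inhibition above 80% but not taken into the dose series; inactive means below 80% or under 30% at every dose of the series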;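 further: bacteria incubated seven days before Alamar blue readout; 0% = bacteria only wells and 100% = bacteria with antibiotic wells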
Arbovirus inh repeat: also measured in Arbovirus inh; calls as there; inhibition, %; measured here: 10K subset replicate screen; many hits read low in the repeat;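 first of two repeat runs on a subset; 0% = infected and 100% = uninfected wells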
Starred values were filed as active, the others as inactive. Not all compounds are listed; count on the stated rates, not on these rows.

Results for O=C(CN1C(=O)c2ccccc2C1=O)NCCc1c[nH]c2ccc(Cl)cc12 ?
Arbovirus inh: 3.2; RecA intein inh: 1.6; Mtb betalactam: 0.7; YopH PTP inh: -9.2; Mtb growth: -0.1%

What do the screens show for `CC(C)c1nc2ccccn2c1NC1CCCCC1`?
Arbovirus inh: 8.9; RecA intein inh: -4.0; Mtb betalactam: 1.2; YopH PTP inh: -62.6; Mtb growth: -3.5%

Results for O=C(NC1CCN(C(=O)NC2CCCCC2)CC1)c1cccc(F)c1 ?
RecA intein inh: 17.4; Mtb betalactam: -4.3

Results for CC1(C)Cc2nc3sc4c(NCCO)ncnc4c3cc2CS1 ?
RecA intein inh: 1.5; Mtb betalactam: 5.9; Mtb growth: 4.1%

What do the screens show for `COc1ccc(C2=NOC(C(=O)Nc3ccc4c(c3)OCCO4)C2)c(OC)c1` (stereo not given)?
RecA intein inh: -7.0; Mtb betalactam: 1.3

Results for O=C1/C(=C\c2ccco2)SC(=S)N1c1ccccc1 ?
Arbovirus inh: -2.0; RecA intein inh: -0.4; Mtb betalactam: -0.3; YopH PTP inh: -18.4; Mtb growth: 0.7%

Results for O=C(NCc1ccccc1Cl)C1CCC(CNc2c(N3CCCCC3)c(=O)c2=O)CC1 (stereo not given) ?
Arbovirus inh: -1.5; RecA intein inh: 1.0; Mtb betalactam: -2.4; YopH PTP inh: -32.7

Results for CCN(CC)C(=O)C(=O)Nc1ccc(OC)c(Cl)c1 ?
Arbovirus inh: 2.1; RecA intein inh: 1.0; Mtb betalactam: -2.7; Mtb growth: -9.2%

What do the screens show for `O=S(=O)(NCC1CCCO1)c1cnc(Cl)c(Br)c1` (stereo not given)?
Arbovirus inh: 3.8; RecA intein inh: -1.3; Mtb betalactam: 0.9; YopH PTP inh: 3.2; Mtb growth: 10.8%

Results for Cc1cccc(N2C(=O)CS/C2=N\NC(=O)c2ccc(Br)cc2)c1C ?
Arbovirus inh: 8.2; RecA intein inh: 1.6; Mtb betalactam: -14.2; YopH PTP inh: -26.9; Mtb growth: 2.4%

How did Cc1c(Cl)cccc1NC(=O)CCC(=O)NNC(=O)c1ccccc1 do in these assays?
Arbovirus inh: 1.0; RecA intein inh: -8.3; Mtb betalactam: -3.5; YopH PTP inh: -39.7; Mtb growth: -13.9%

Results for CCN1C(=O)/C(=C/c2cccs2)SC1=Nc1ccc(OC)cc1 ?
Arbovirus inh: 0.3; RecA intein inh: 2.6; Mtb betalactam: -3.9; YopH PTP inh: -7.5; Mtb growth: -7.0%

What do the screens show for `COc1ccc(C(=O)Nc2cc(C)on2)cc1S(=O)(=O)N1CC(c2ccccc2)CC1=O` (stereo not given)?
Arbovirus inh: -3.5; RecA intein inh: -2.7; Mtb betalactam: 7.3; Mtb growth: 0.9%

How did CN(C(=O)COC(=O)c1c2c(nc3ccccc13)/C(=C/c1cccc([N+](=O)[O-])c1)CCC2)C1CCS(=O)(=O)C1 (stereo not given) do in these assays?
Arbovirus inh: -33.2; RecA intein inh: 0.6; Mtb betalactam: 45.7; YopH PTP inh: -30.0; Mtb growth: 78.5%

Results for CC(OC(=O)CC1CCCC1)C(=O)Nc1ccc(Cl)cn1 (stereo not given) ?
RecA intein inh: 3.5; Mtb betalactam: -9.3

How did Cc1csc(NC(=O)C2CCN(S(=O)(=O)c3cccs3)CC2)n1 do in these assays?
Arbovirus inh: 6.1; RecA intein inh: -2.3; Mtb betalactam: -25.5; Mtb growth: 6.8%

What do the screens show for `Cc1ccc(N2C(=O)NC(NC(=O)C3CC3)(C(F)(F)F)C2=O)cc1` (stereo not given)?
Arbovirus inh: 4.4; RecA intein inh: 0.8; Mtb betalactam: 3.3; YopH PTP inh: -26.6; Mtb growth: -1.4%

How did CCOC(=O)N(Cc1ccccc1)Cc1ccc(C(=O)N[C@@H](Cc2ccccc2)C(=O)O)cc1 do in these assays?
RecA intein inh: 2.8; Mtb betalactam: 4.7

What do the screens show for `CSc1ncccc1C(=O)N1CCN(C(=O)c2ccccc2)CC1`?
RecA intein inh: -0.4; Mtb betalactam: 1.8

What do the screens show for `O=[N+]([O-])c1cccc2c(N3CCOCC3)ccnc12`?
Arbovirus inh: -5.4; RecA intein inh: 8.4; Mtb betalactam: -0.6; Mtb growth: 0.6%

Results for CCc1nc(SCC(=O)Nc2cccc(C(F)(F)F)c2)c2c(=O)n(C)c(=O)n(C)c2n1 ?
Arbovirus inh: -8.9; RecA intein inh: 0.4; Mtb betalactam: 0.6; YopH PTP inh: -32.1; Mtb growth: 0.1%

How did COc1ccc(N/C=C(\C#N)c2ccc(OCCCF)cc2)cc1 do in these assays?
Arbovirus inh: 2.7; RecA intein inh: -0.9; Mtb betalactam: 10.2; YopH PTP inh: -6.6; Mtb growth: 5.2%

What do the screens show for `COc1ccc(C2CC(c3ccc(Cl)c(Cl)c3)Nc3nc(N)nn32)cc1` (stereo not given)?
Arbovirus inh: 16.3; RecA intein inh: -2.7; Mtb betalactam: 3.1; YopH PTP inh: -32.6; Mtb growth: -0.5%; Arbovirus inh repeat: -9.7

How did CCS(=O)(=O)N1CCN(C(=O)c2ccccc2[N+](=O)[O-])CC1 do in these assays?
Arbovirus inh: 2.6; RecA intein inh: -0.3; Mtb betalactam: -7.8; Mtb growth: 2.2%

How did CCOc1ccc2nc(NC(=O)/C=C/c3ccc4c(c3)OCO4)sc2c1 do in these assays?
Arbovirus inh: -14.0; RecA intein inh: -2.3; Mtb betalactam: -0.4; YopH PTP inh: -9.5; Mtb growth: -7.9%

How did Cc1ccc(S(=O)(=O)n2cnc3ccccc32)c(C)c1 do in these assays?
Arbovirus inh: 5.5; RecA intein inh: 1.1; Mtb betalactam: -7.1; YopH PTP inh: -41.7; Mtb growth: 3.2%

What do the screens show for `O=C1C2C3CC(C2C(=O)N1c1cccc(Cl)c1)[C@H](O)C3O` (stereo not given in full)?
RecA intein inh: -1.7; Mtb betalactam: -3.6; Mtb growth: 1.1%

How did COc1ccc(C(=O)NCCCCCC(=O)N/N=C/c2ccco2)cc1OC do in these assays?
Arbovirus inh: -2.3; RecA intein inh: -0.1; Mtb betalactam: -7.8; YopH PTP inh: -22.8; Mtb growth: -10.1%

How did NC(=O)CN(c1ccc(Oc2ccccc2)cc1)S(=O)(=O)c1ccccc1 do in these assays?
RecA intein inh: -3.0; Mtb betalactam: -1.7

Results for CCOC(=O)c1cnc(-n2nc(C)cc2C)nc1NNc1cc(-c2ccccc2)nc(C)n1 ?
Arbovirus inh: -35.3; RecA intein inh: 13.3; Mtb betalactam: 99.4; YopH PTP inh: -13.6; Mtb growth: inconclusive

Nothing new here: an excerpt of the list.
How did NC(=O)CN(c1ccc(Oc2ccccc2)cc1)S(=O)(=O)c1ccccc1 do in these assays?
RecA intein inh: -3.0; Mtb betalactam: -1.7

Results for CCOC(=O)c1cnc(-n2nc(C)cc2C)nc1NNc1cc(-c2ccccc2)nc(C)n1 ?
Arbovirus inh: -35.3; RecA intein inh: 13.3; Mtb betalactam: 99.4; YopH PTP inh: -13.6; Mtb growth: inconclusive

Following part
Results for O=C(Nc1ccccc1)c1c(O)c2c(n(Cc3ccco3)c1=O)CCCC2 ?
RecA intein inh: 3.5; Mtb betalactam: -6.5; Mtb growth: -2.2%

What do the screens show for `CC(C)CCN(C(=O)Nc1ccccc1)C(C)c1cccs1` (stereo not given)?
Arbovirus inh: -1.7; RecA intein inh: 7.0; Mtb betalactam: inconclusive; YopH PTP inh: -10.1; Mtb growth: 1.4%

What do the screens show for `NS(=O)(=O)c1ccc(CCNC(=O)CSc2nc3ccccc3c(=O)n2CCC(=O)N2CCCCC2)cc1`?
Arbovirus inh: 6.9; RecA intein inh: 1.0; Mtb betalactam: -3.0; Mtb growth: -5.0%

Results for CCC(=O)c1ccccc1OCC(=O)Nc1c(C)cccc1C ?
Arbovirus inh: 10.9; RecA intein inh: -0.5; Mtb betalactam: 0.0; Mtb growth: 7.4%

How did O=c1c(/C=C(\O)c2ccccc2)nc2ccccc2n1-c1ccccc1 do in these assays?
Arbovirus inh: -2.3; RecA intein inh: -6.6; Mtb betalactam: 16.2; YopH PTP inh: -18.2; Mtb growth: -3.3%

How did CCCCCCn1cnc2c(c1=O)c1nc3ccccc3nc1n2Cc1cccs1 do in these assays?
Arbovirus inh: -0.4; RecA intein inh: -3.5; Mtb betalactam: -11.3; YopH PTP inh: -17.6; Mtb growth: 8.7%

Results for O=C(COC(=O)c1ccc(O)cc1)NCCC1=CCCCC1 ?
Arbovirus inh: -1.1; RecA intein inh: -2.9; Mtb betalactam: -2.6; Mtb growth: -4.9%

How did O=C(O)CSc1nnc(-c2ccc(Cl)cc2Cl)n1-c1ccc(Br)cc1 do in these assays?
RecA intein inh: 4.8; Mtb betalactam: 0.4

How did CCOC(=O)N1CCN(c2ccc(C(=O)c3cccc(F)c3)cc2)CC1 do in these assays?
Arbovirus inh: -3.9; RecA intein inh: 2.1; Mtb betalactam: 0.8; YopH PTP inh: -9.1; Mtb growth: 3.7%

Results for O=C(O)c1cc([N+](=O)[O-])c(NCc2cccnc2)c([N+](=O)[O-])c1 ?
Arbovirus inh: 9.7; RecA intein inh: 2.6; Mtb betalactam: -1.1; Mtb growth: -6.7%

What do the screens show for `Cc1ccc(S(=O)(=O)Oc2ccccc2C=C2C(=O)N(C)C(=O)N(C)C2=O)cc1`?
RecA intein inh: 0.9; Mtb betalactam: 4.7

How did O=C(CNC(=O)c1cccs1)N/N=C/c1ccco1 do in these assays?
Arbovirus inh: -0.6; RecA intein inh: -1.2; Mtb betalactam: 2.8; Mtb growth: -6.8%

Results for CC(C)(C)CN1C(=O)C(=O)NC[C@@H]1Cc1ccc(O)cc1 ?
RecA intein inh: -0.5; Mtb betalactam: -0.1; Mtb growth: -6.2%

How did O=C(c1ccc([N+](=O)[O-])o1)N1CCN(c2nc3c(F)cc(F)cc3s2)CC1 do in these assays?
RecA intein inh: -2.1; Mtb betalactam: 99.5

How did COc1ccc(C(=O)NC(=S)NC(C)c2ccccc2)cc1 (stereo not given) do in these assays?
RecA intein inh: 2.2; Mtb betalactam: 4.4

What do the screens show for `COc1cc2c(cc1OC)CN(C(=O)C1CCCN1S(=O)(=O)c1ccc(F)cc1)CC2` (stereo not given)?
RecA intein inh: 1.4; Mtb betalactam: -2.3

What do the screens show for `CNCC(=O)c1ccccc1`?
RecA intein inh: -0.8; Mtb betalactam: -1.8; Mtb growth: -7.2%

Results for O=C(N/N=C/c1ccncc1)c1nc(-c2ccccc2)n2c1CCCCC2 ?
Arbovirus inh: 0.3; RecA intein inh: 3.3; Mtb betalactam: 69.1; YopH PTP inh: -13.9; Mtb growth: -5.3%

Results for O=C(NNS(=O)(=O)c1ccc([N+](=O)[O-])cc1)c1ccncc1 ?
RecA intein inh: -5.4; Mtb betalactam: 91.6

How did CCOC(=O)N1CCN(C(=O)Cn2ncc3ccccc32)CC1 do in these assays?
Arbovirus inh: 0.2; Mtb betalactam: 2.6; YopH PTP inh: -27.9; Mtb growth: -7.7%; Arbovirus inh repeat: 4.7

Results for O=C(NCc1ccc(Cl)cc1)C1=Cc2cc(Cl)ccc2OC1 ?
Arbovirus inh: 0.9; RecA intein inh: 24.1; Mtb betalactam: 7.6; YopH PTP inh: -32.6; Mtb growth: -7.1%

How did CC(=O)Nc1ccc(C(=O)CSc2nc3ccccc3n2CC(=O)N2CCCC2)cc1 do in these assays?
Arbovirus inh: -4.0; RecA intein inh: -1.9; Mtb betalactam: 0.0; YopH PTP inh: -26.9; Mtb growth: -5.8%

How did COc1ccc(C)cc1NC(=O)NCc1ccccc1F do in these assays?
Arbovirus inh: 0.0; RecA intein inh: 1.1; Mtb betalactam: 10.2; Mtb growth: 5.4%

What do the screens show for `CN(Cc1ccccc1)c1ccc(C(CC(N)=O)NC(=O)Cc2ccc(Br)cc2)cc1[N+](=O)[O-]` (stereo not given)?
RecA intein inh: -2.0; Mtb betalactam: -6.3; Mtb growth: 3.1%

Results for COc1ccc(CN2CCSc3sccc3C2=O)cc1 ?
RecA intein inh: 2.7; Mtb betalactam: 1.6

Results for COc1ccc(NC(=O)c2nc[nH]c2C(=O)N[C@@H](C)c2ccccc2)cc1 ?
RecA intein inh: 7.8; Mtb betalactam: 98.6; Mtb growth: 5.7µM*

How did CCCN1C2=NS(=O)(=O)CCN2c2ccccc21 do in these assays?
Arbovirus inh: 8.7; RecA intein inh: 0.1; Mtb betalactam: -3.5; YopH PTP inh: -45.2; Mtb growth: -0.1%

How did CCN=C1NN=C(c2ccc(C)cc2)CS1 do in these assays?
Arbovirus inh: -10.4; RecA intein inh: 6.4; Mtb betalactam: 26.2; YopH PTP inh: -15.6; Mtb growth: 6.1%

Results for Cc1cc(C)cc(N(CC(=O)Nc2ccccc2)C2=NC3CS(=O)(=O)CC3S2)c1 (stereo not given) ?
Arbovirus inh: 9.0; RecA intein inh: 17.2; Mtb betalactam: 1.8; Mtb growth: 4.6%
